# Compound activity: PubChem BioAssay, Southern Research Institute
# Mtb H37Rv = Mycobacterium tuberculosis H37Rv growth inhibition, putative kinase inhibitor library, confirmatory dose response (AID 2842). one-dose inhibition, % at 10 µg/mL; IC90 in µg/mL for titrated hits. M. tuberculosis H37Rv growth inhibition; higher % means a stronger effect; some inactives read as strong as hits. 5.2% of 24,000 active;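 active means confirmed in a dose series; inconclusive means mostly over 85% at the one dose but not retested; inactive means below 85% or not confirmed; about a fifth of its hits are not listed in these tables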;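 further: bacteria incubated one week before Alamar blue readout; 0% = bacteria only wells and 100% = bacteria with high antibiotic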
# Numbers without * were called inactive; ? = inconclusive.
structure	Mtb H37Rv
NC(=O)c1c(NC(=O)CCc2ccccc2)sc2c1CCCCC2	-4%
CCOC(=O)c1nn(-c2ccc(OC)cc2)c(=O)c2c(NC(=O)C(C)Oc3ccccc3)scc12 (stereo not given)	8%
O=C(COc1ccccc1)Nc1nnc(-c2ccc(F)cc2)s1	8%
Cc1cc(NC(=O)CSc2ncnc3c2nnn3Cc2ccc(F)cc2)no1	1%
Cc1ccc(Cl)cc1NC(=O)c1cnc2sccn2c1=O	-6%
O=C(CSc1nc2ccccc2nc1-c1ccccc1)Nc1ccc2c(c1)OCO2	-15%
O=C(c1ccc(Nc2nc(-c3ccccc3)c3cc(Br)ccc3n2)cc1)N1CCOCC1	16%
COc1ccc(-c2csc(NC(=O)c3ccc(C#N)cc3)n2)cc1	1%
O=C1NC(c2cccc(F)c2)C(C(=O)c2cccs2)C(O)(C(F)(F)F)N1 (stereo not given)	-21%
COc1cccc(C(=O)Nc2c(C(=O)Nc3ccc(OC(F)(F)F)cc3)oc3ccccc23)c1	53%
CCOC(=O)CSc1ccc2nnc(-c3ccc(C)cc3)n2n1	2%
O=C(NCc1cccs1)C(=O)Nc1cc2c3c(c1)CCC(=O)N3CCC2	-1%
Cc1cc(C)cc(NC(=O)c2ccc(S(=O)(=O)N3CCCC(C)C3)cc2)c1 (stereo not given)	-5%
O=C(O)c1cccc(Nc2ncnc3scc(-c4ccccc4)c23)c1	0%
COc1ccccc1-c1csc(NC(=O)c2cccc([N+](=O)[O-])c2)n1	9%
COc1ccc(CCC(=O)Nc2ccc3c(c2)C(=O)Nc2ccccc2O3)cc1	0%
CC(=O)NCCNc1nc2c(-c3cccc(C(F)(F)F)c3)nnn2c2ccc(Cl)cc12	-1%
O=C(Nc1c(C(=O)Nc2ccc3c(c2)OCO3)oc2ccccc12)c1ccc(F)cc1	5%
Cc1nnc(SCc2ccccc2)n(N)c1=O	2%
Cc1nnc(NC(=O)CSc2nnc(CNC(=O)c3ccc(C(C)(C)C)cc3)n2-c2ccccc2)s1	2%

# Copied from the list:
# Mtb H37Rv, COc1ccccc1-c1csc(NC(=O)c2cccc([N+](=O)[O-])c2)n1 → 9%
# Mtb H37Rv, CCOC(=O)CSc1ccc2nnc(-c3ccc(C)cc3)n2n1 → 2%
# Mtb H37Rv, CC(=O)NCCNc1nc2c(-c3cccc(C(F)(F)F)c3)nnn2c2ccc(Cl)cc12 → -1%

# (next part)
structure	Mtb H37Rv
CCN(CC)c1ccc(C2C3=C(CCCC3=O)Nc3[nH]c(=O)[nH]c(=O)c32)cc1 (stereo not given)	-8%
NC(=O)c1ccc(NC(=O)COc2cccc(Cl)c2)cc1	0%
O=c1cc(Cc2nnc(SCc3ccccc3F)n2-c2ccc(F)cc2)[nH]c(=O)[nH]1	-1%
O=C(CCCc1nnc2c(=O)n(-c3ccc(Cl)cc3)ccn12)NCc1ccco1	-3%
Cc1cccc(NC(=O)CSc2nc(N)c(NC(=O)c3ccc(Br)o3)c(=O)[nH]2)c1	-12%
O=C(CCC1CCCCC1)Nc1c(C(=O)Nc2ccc3c(c2)OCCO3)oc2ccccc12	-2%
Cc1ccnc(SCc2cc(=O)c(OC(=O)c3cc(Cl)ccc3Cl)co2)n1	-3%
Cc1cc(O)ccc1Nc1nncc(=O)[nH]1	-19%
Cn1c(=O)[nH]c(=O)c2c1nc(N1CCCC1)n2CCSc1nc2ccccc2[nH]1	-2%
CC1CC(C)CN(c2nc3c(c(=O)n(C)c(=O)n3C)n2CCSc2ncccn2)C1 (stereo not given)	6%
Cc1ccccc1-c1nnc(NC(=O)c2cccc3ccccc23)s1	15%
CC(=O)C1C(c2sccc2C)NC(=O)NC1(O)C(F)(F)F (stereo not given)	-15%
O=C1CCc2cc(S(=O)(=O)Nc3ccc(Cl)cc3Cl)cc3c2N1CC3	3%
O=C(Cc1ccc(Cl)cc1)Nc1cccc(-c2ccc3nncn3n2)c1	12%
COc1cc(OC)cc(C(=O)Nc2nnc(CC(C)C)s2)c1	22%
CCOc1ccccc1NC(=O)c1oc2ccccc2c1NC(=O)Cc1cccs1	-8%
O=C(Nc1nnc(SCc2cc(=O)c(OC(=O)C3CCCC3)co2)s1)C1CC1	2%
COC(=O)c1ccc(NS(=O)(=O)c2ccc(Cl)c(C(=O)O)c2)cc1	-9%
Cc1c(C)n2c(SCc3ccc(C(F)(F)F)cc3)nnc2[nH]c1=O	16%
Cc1ccc(-n2ncc3c(=O)n(CC(=O)Nc4cccc5ccccc45)cnc32)c(C)c1	-3%
Cc1ccccc1CN1CCN(c2nc3c(c(=O)[nH]c(=O)n3C)n2CCc2ccccc2)CC1	2%
Cc1ccc(Cn2c3c(=O)[nH]c(=O)n(C)c3n3c(-c4ccccc4Cl)nnc23)cc1	-7%
COC(=O)c1ccc(NC(=O)CSc2nc(C)cc(=O)[nH]2)cc1	-41%
O=c1[nH]cc(S(=O)(=O)N2CCN(c3cccc(Cl)c3)CC2)c(=O)[nH]1	-5%
Cc1nc(C)c(C(=O)C2=C(O)C(=O)N(CCCn3ccnc3)C2c2ccccc2)s1 (stereo not given)	-16%
Cc1sc2nc(SCC(=O)NCc3cccnc3)n(C)c(=O)c2c1C	-15%
CCCN1CC2=C(C1=O)C(c1ccc(OCc3ccccc3)cc1)NC(=O)N2 (stereo not given)	-9%
COC(=O)C(C)N1C(=O)/C(=C/c2ccc(O)c([N+](=O)[O-])c2)SC1=S (stereo not given)	56%
Cc1ccc(NC(=O)COc2ccccc2Cl)cc1[N+](=O)[O-]	3%
O=C(CSc1ccc2nnc(-c3ccccc3)n2n1)N1CCN(c2ccccc2)CC1	-3%
CC(=O)Nc1cccc(C2=CC(c3ccc(Cl)cc3Cl)n3ncnc3N2)c1 (stereo not given)	-9%
CCOc1cc(/C=N/NC(=O)CCn2cnc3ccccc32)ccc1O	-5%
Cc1ccc(Cn2c(SCc3ccccc3Cl)nc3c2c(=O)[nH]c(=O)n3C)cc1	18%
CCc1nnc(NC(C)=O)s1	7%
COc1ccc(S(=O)(=O)NC2CC(=O)N(c3ccc(Cl)cc3)C2)cc1 (stereo not given)	12%
O=C(Cc1cccc2ccccc12)NNc1ncnc2c1cnn2-c1cccc(Cl)c1	1%
Cc1csc(NC(=O)CSc2nnc(-c3c[nH]c4ccccc34)n2C)n1	-3%
CCOC(=O)C1CCN(C(=O)c2cc3cc(Br)ccc3oc2=O)CC1	7%
O=C(/C=C/c1cccc(F)c1)N1CCN(c2ccccn2)CC1	8%
CC(=O)c1ccc(C(=O)Nc2nnc(-c3ccc(Cl)cc3)o2)cc1	1.8µg/mL*
O=C(CSc1nc2c(sc3ccccc32)c(=O)n1Cc1ccccc1Cl)Nc1ccccc1Cl	1%
O=C(CSc1nc2c([nH]c3ccccc32)c(=O)n1-c1ccc(F)cc1)Nc1cccc(C(F)(F)F)c1	55%
COc1ccc(C2NC(=O)NC(O)(C(F)(F)F)C2C(=O)c2cccnc2)cc1OC (stereo not given)	-14%
CCc1ccc(-n2c(-c3ccccc3)cn3c4c(=O)[nH]c(=O)n(C)c4nc23)cc1	-8%
COc1ccc(OC)c(NC(=O)CSc2nc3c(c(=O)n2C)SC(C)C3)c1 (stereo not given)	-1%
CCOC(=O)N1CCN(C(=O)CSc2nnc(C)c(=O)n2N)CC1	1%
COc1ccccc1-c1nnc(NC(=O)c2c(F)cccc2F)o1	-4%
O=C(Nc1cccc(Cl)c1)C(=O)Nc1cc2c3c(c1)CCC(=O)N3CCC2	19%
Cc1sc2ncn(CC(=O)N/N=C\c3ccc(O)cc3)c(=O)c2c1C	-5%
Cc1ccc(C(=O)Nc2nc(-c3ccc4c(c3)OCCO4)cs2)cc1	6%

# (next part)
structure	Mtb H37Rv
N#C/C(=N\Nc1cccc(C(F)(F)F)c1)c1nc(-c2ccc(Cl)cc2Cl)cs1	-9%
CCOc1ccc(C(=O)Nc2nnc(-c3ccc(Br)cc3)s2)cc1OCC	3%
O=C(Cc1n[nH]c(=O)[nH]c1=O)N/N=C/c1cc(Cl)ccc1Cl	2%
O=C1CN(C(=O)CSc2nnc(-c3ccccc3)c(-c3ccccc3)n2)c2ccccc2N1	28%
O=C(CSc1ccc2nnc(-c3ccncc3)n2n1)Nc1ccc(Cl)c(Cl)c1	2%
CSc1nnc(Cc2cc(=O)[nH]c(=O)[nH]2)n1-c1ccc(F)cc1	-9%
C=CCn1c(N2CCN(Cc3ccc(Cl)cc3)CC2)nc2c1c(=O)[nH]c(=O)n2C	9%
Cc1cccc2sc(NNC(=O)c3cc(=O)c4ccccc4o3)nc12	22%
COc1cccc2sc(Nc3nc(-c4ccc(Cl)s4)cs3)nc12	7.3µg/mL*
CN1CCOc2ccc(NC(=O)c3ccc(F)cc3)cc2C1=O	-7%
CCOC(=O)CSC(C)C(=O)Nc1nnc(C(C)C)s1 (stereo not given)	14%
COc1ccc(Cc2nnc(Nc3ccc(Cl)cc3)[nH]c2=O)cc1	13%
Cc1ccc2cc(CCNC(=O)c3ccc4c(c3)OCO4)c(=O)[nH]c2c1	9%
O=C(Nc1nc(-c2nc3ccccc3s2)cs1)C1COc2ccccc2O1 (stereo not given)	27µg/mL*
NC(=O)c1nc(-c2ccc(Cl)cc2Cl)nc2c1[nH]c(=O)n2-c1ccc(F)cc1	-10%
CC(=O)Nc1cccc(NC(=O)CSc2nc3[nH]ncc3c(=O)[nH]2)c1	-7%
CN(Cc1ccccc1)S(=O)(=O)c1ccc(C(=O)Nc2cccc(Cl)c2Cl)cc1	-3%
O=S(=O)(NC1c2cccc3cccc(c23)C1Sc1ncn[nH]1)c1ccc(Cl)cc1 (stereo not given)	61%
O=C1CN(c2ccccc2)C(=O)C1C(=O)NCc1ccccc1 (stereo not given)	5%
Cc1c(Cc2ccc3c(c2)OCO3)sc(NC(=O)c2ccc(Br)cc2)c1C#N	-2%

# Some of the entries above in another layout:
NC(=O)c1nc(-c2ccc(Cl)cc2Cl)nc2c1[nH]c(=O)n2-c1ccc(F)cc1
- Mtb H37Rv: -10%

CC(=O)Nc1cccc(NC(=O)CSc2nc3[nH]ncc3c(=O)[nH]2)c1
- Mtb H37Rv: -7%

# Next part
structure	Mtb H37Rv
Cn1c(=O)c2c(SCC(=O)NCc3ccc(F)cc3)nc(-c3ccc([N+](=O)[O-])cc3)nc2n(C)c1=O	-11%
COc1ccc(C(=O)Nc2nnc(-c3ccco3)o2)cc1	?
O=C(Nc1nnc(-c2cccc([N+](=O)[O-])c2)s1)c1ccc(Br)cc1	3%
COc1ccc(OC)c2sc(N(CCCn3ccnc3)C(=O)c3ccco3)nc12	6.7µg/mL*
CCOC(=O)c1ccc2nc(NC(=O)Cc3cccc4ccccc34)sc2c1	72%
O=C(CCC(=O)N/N=C/c1ccco1)N/N=C/c1ccco1	-13%
CCC(C)Sc1nc2c(c(=O)[nH]1)C(c1ccc(F)cc1)C1=C(CCCC1=O)N2 (stereo not given)	5%
Cc1ccc(C)c(-c2nnc(NC(=O)c3ccc(S(=O)(=O)N(C)C4CCCCC4)cc3)o2)c1	58µg/mL*
CCNc1nc2c(c(=O)n(C)c(=O)n2C)n1CC(O)COc1ccc(C)c(C)c1 (stereo not given)	17%
Cc1ccc(C(=O)Nc2sc3c(c2C(N)=O)CCCCC3)cc1C	-7%
Cn1c(=O)c2c(SCC(=O)NC(C)(C)C)ccnc2n(C)c1=O	-3%
CCOC(=O)COc1cccc2c(=O)n(CC(N)=O)ccc12	-16%
COc1ccc(N2CC(NC(=O)Nc3ccccc3F)CC2=O)cc1 (stereo not given)	10%
CCOC(=O)N1CCN(C(=O)CSc2nc(N)c(NC(=O)c3cccs3)c(=O)[nH]2)CC1	-8%
c1ccc(NC(Nc2ccccc2)=[N+]2CCOCC2)cc1	3%
CCCCCOC(=O)CSc1nc2c(c(=O)[nH]c(=O)n2C)n1CC(N)=O	-2%
C=CCn1c(O)c(C2=c3cc(C)ccc3=NC2=O)s/c1=N/c1nccs1	4%
CN1C(=O)c2cccc(NC(=O)CN3C(=O)c4ccccc4C3=O)c2C1=O	-8%
O=C1c2ccccc2C(=O)c2cc(S(=O)(=O)Nc3ccc(Cl)cc3)ccc21	17%
NC(=O)C1CCN(C2=NC(=O)/C(=C\c3ccc(-c4ccc(F)cc4)o3)S2)CC1	4%
Cc1ccc(Cl)cc1NC(=O)CN1N=NC2C(=O)N(c3ccc(Cl)cc3)C(=O)C21 (stereo not given)	-22%
Cc1ccc(C)c2[nH]c(=O)c(CCNC(=O)C(C)C)cc12	-15%
CCCc1cc(=O)[nH]c2nnc(SCC(=O)Nc3ccc(F)cc3)n12	-3%
COc1cc(Cl)c(C)cc1-n1ccnc(NCc2ccc3c(c2)OCO3)c1=O	73%
Cn1c(SCC(=O)OCC(=O)c2ccc(Cl)cc2)nc2c1c(=O)[nH]c(=O)n2C	1%
CCS(=O)(=O)c1ccc(C(=O)Nc2nc3c(C)cc(C)cc3s2)cc1	0%
CCCCn1c(N2CCN(Cc3ccc(Cl)c(Cl)c3)CC2)nc2c1c(=O)[nH]c(=O)n2C	7.2µg/mL*
CCCOc1nn(CCC)cc1C(=O)Nc1ccc(S(N)(=O)=O)cc1	15%
N#Cc1c(NC(=O)CC2SC(N)=NC2=O)sc2c1CCCC2 (stereo not given)	-2%
COc1ccc(CNC(=O)c2cnc3n(c2=O)CCS3)cc1	-6%
CCOC(=O)C(C)Oc1cccc2c(=O)n(CC(N)=O)ccc12 (stereo not given)	-2%
CSc1nc2c(c(=O)[nH]1)C(c1cccc([N+](=O)[O-])c1)C1=C(CCCC1=O)N2 (stereo not given)	-1%
CC(=O)c1c(C)oc2c(Br)cc(NS(=O)(=O)c3cc(C)c(C)cc3C)cc12	3%
O=C(/C=C/c1ccccc1Cl)Nc1nnc(C2=COCCO2)o1	27µg/mL*
COc1cc(OC)cc(C(=O)Nc2sc3c(c2C(N)=O)CCCCC3)c1	-6%
O=C(CSc1ncnc2ccccc12)N1CCCCC1	13%

# Not all compounds are listed; rates above refer to the full screens.
